# Assay outcomes (PubChem)
# CDC25B-CDK2 inh: human CDC25B-CDK2/CyclinA binding inhibition | P30305+P24941 | HTRF CDC25B-CDK2/CyclinA binding, anti-His/anti-Flag; active compounds read high | z-score (test concentration not listed) | 94,000 tested, 0.72% active | AID 1259370;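 also: score is relative to mean and SD of negative controls; strong numbers were not always called active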
# TAR Tat displ: HIV-1 TAR-Tat binding disruption | HIV-1 TAR RNA, Tat peptide displacement FRET; active compounds read high | z-score (test concentration not listed) | 100,000 tested, 0.6% active | AID 1259389;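 also: score is relative to mean and SD of negative controls; some compounds called inactive have numbers as strong as hits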
# Starred values were filed as active, the others as inactive; . = not tested or not shown.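 The calls were made as follows: active = z-score from 3 up in half or more of its runs; inactive = the rest.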
SMILES,CDC25B-CDK2 inh,TAR Tat displ
Fc1ccc(C2CC(c3cccs3)n3nnnc3N2)cc1 (stereo unspecified),.,0.59
O=S(=O)(c1ccc(Cl)cc1)N1CCCc2ccccc21,-1.7,0.37
COC(=O)c1oc2c(c1C)-c1nc3ccccc3nc1C(C)(C)C2,-1,-2.7
CCCCn1c2ccc(F)cc2c2nnc(SCCN3CCOCC3)nc21,-0.12,0.12
COc1ccccc1N1CCN(c2ncnc3c2nc2n3CCCC2)CC1,0.28,1.6
O=C1CN(Cc2ccccc2)S(=O)(=O)c2ccccc2N1Cc1cccc(F)c1,.,1.5
COCCNc1nc2ccc(C)cc2n2nnnc12,.,1.1
CCn1c(=O)c(N2CCCC2C(=O)O)nc2cccnc21 (stereo unspecified),-0.58,-1.2
COc1cccc2c1C(=O)c1c(O)c3c(c(O)c1C2=O)C[C@@](O)(C(C)=O)C[C@@H]3OC1CC(N)C(O)C(C)O1 (stereo partly specified),.,1.5
Cc1ccccc1OCc1nc2c3c(C)c(C)oc3ncn2n1,.,0.28
CCOC(=O)C1C(=O)OC2(CCOC(C)(C)C2)C1C(=O)OCC (stereo unspecified),-0.73,.
C[C@@H]1OC(O[C@H]2[C@H](OC(=O)[C@]34CCC(C)(C)CC3C3=CCC5[C@@]6(C)CC[C@H](OC7O[C@@H](C)[C@H](O[C@@H]8OC[C@@H](O)[C@H](O)[C@H]8O)[C@@H](O)[C@H]7O)C(C)(C)C6CC[C@@]5(C)[C@]3(C)CC4O)OC[C@H](O)[C@H]2O)[C@H](O)[C@H](O)[C@H]1O[C@@H]1O[C@H](CO)[C@@H](O)[C@H](O)[C@H]1O (stereo partly specified),.,1.5
CCc1ccc(-c2nc3c(C#N)c[nH]n3c2NC2CCCC(C)C2C)cc1 (stereo unspecified),-1.1,1.4
CC(C)CNC(=O)C1CC(=O)N(CCc2c[nH]c3ccc(Cl)cc23)C1 (stereo unspecified),-0.62,-0.68
Cc1ccc(C2CC(C(F)(F)F)n3nc(C(=O)NCc4c(C)nn(C)c4C)c(Cl)c3N2)cc1 (stereo unspecified),0.34,0.13
O=C(O)Cc1ccc2c(c1)OCCO2,-0.16,0.24
Nc1cc(S(N)(=O)=O)ccc1Cl,-2.2,0.08
CSC1=N/C(=C\c2ccccc2Cl)C(=O)N1N(C)C,-0.36,.
COCCNC(=O)c1nn2c(C(F)(F)F)c3c(nc2c1Cl)-c1ccccc1CC3,0.02,-8.6
c1cc(CN2CCN(Cc3ccncc3)CC2)ccn1,-0.19,-0.19
Oc1c(CN2CCOCC2)cc(-c2ccccc2)cc1CN1CCOCC1,-1.2,-0.59
COc1ccc(-c2noc(C(c3ccccc3)c3ccccc3)n2)cc1,0.61,-1.4
O=C(O)CC(CC(=O)Nc1ccc(-n2ccc(C(F)(F)F)n2)cc1)c1ccccc1 (stereo unspecified),-0.22,.
Cc1ccc(OCc2nc(-c3ccc(Br)cc3)no2)cc1C,-2.3,.
COc1ccc(-c2csc(-c3cc4c([nH]c3=O)CC(c3ccc(OC)c(OC)c3)CC4=O)n2)cc1 (stereo unspecified),-1.2,-5.7
Cc1ccc(S(=O)(=O)N2CCN(c3nc(C)nc4sc5c(c34)CCCC5)CC2)cc1,-0.38,0.8
Cc1ccc(C(C)NC(=O)/C=C/c2ccccc2)c(C)c1 (stereo unspecified),-1.2,.
CC(C)CCNC(=O)Cn1cnc2c(nc3n2CCCCC3)c1=O,.,-0.87
Cc1cc(C(=O)Nc2cc(C(F)(F)F)ccc2N2CCOCC2)nn1-c1ccccc1,-2.2,.
Cc1cc(-c2ccc(S(=O)(=O)N3CCC(C)CC3)s2)on1,.,-0.94
CNC(=O)CC1Sc2ccc(C(F)(F)F)cc2NC1=O (stereo unspecified),-1.3,.
O=C(CC1CCCCC1)Nc1ccc2nc3n(c(=O)c2c1)CCCC3,1.2,-0.35
O=C(Nc1cccc(F)c1)C1CCN(c2ccccc2)C1=O (stereo unspecified),.,-0.08
O=c1nc(/C=C/c2ccccc2)[nH]c(=O)[nH]1,-0.45,.
Cc1cc(C)cc(Nc2c(-c3ccc(C)c(C)c3)c(=O)c2=O)c1,.,3.5
CCOc1ccc(C2c3c(oc4cc(C)c(C)cc4c3=O)C(=O)N2c2nccs2)cc1OC (stereo unspecified),-2,1.8
Cc1ccc(S(=O)(=O)N(C)Cc2cc3ccccc3[nH]c2=O)cc1,-1.3,2
COC(=O)C1=C(C)Nc2nc3ccccc3n2C1c1ccccc1F (stereo unspecified),-1.8,-1
Cc1cn2c(=O)cc(CSc3ccccc3N)nc2s1,.,0.58
COc1ccc(Nc2ncnc3sc(-c4ccccc4)cc23)c(OC)c1,-0.98,.
O=C(NCCN1CCNC1=O)c1sc2ccccc2c1Cl,-1.5,.
O=C(Nc1ccccc1Br)N1Cc2cccn2-c2ccccc21,.,-0.15
Cc1cccc(Nc2nnc(-n3nc(C)cc3C)c3ccccc23)c1,-0.34,1.8
CCOc1cc(S(=O)(=O)n2c(C)nc3ccccc32)ccc1F,-1.4,1.1
O=C(CCSc1nnc2scc(-c3ccccc3)n12)Nc1nsc(-c2ccccc2)n1,0.43,1.1
CCN(CC)Cc1nc2ccccc2[nH]1,-0.13,0.98
CCOC(=O)c1[nH]c(C)c(CN(Cc2ccco2)C(=O)C2CC2)c1C,.,0.76
O=c1c(SCc2ccc(F)cc2Cl)nccn1-c1ccccc1,.,0.8
O=C(Nc1nnc(Cc2ccc(Cl)cc2Cl)s1)Nc1ccccc1F,-1.7,.
COC(=O)c1c(C)oc2ccc(OC(C)C(=O)O)cc12 (stereo unspecified),-1.7,1.3
COc1ccc(-c2onc(C)c2C)cc1S(=O)(=O)NCc1ccco1,.,0.36
CC(C)CCn1c(=O)c2sccc2n2c(CCCC(=O)NC3CC3)nnc12,.,-2.2
O=C(CN1CCN(c2ccccc2)CC1)N1N=C2c3ccccc3CCC2C1c1cccs1 (stereo unspecified),-1.3,.
O=C(CCCN1C(=O)CSc2ncccc21)NCCCN1CCOCC1,-1.7,0
CC(C)(C)OC(=O)N[C@@H](CCCN=C(N)N)C(=O)O,-1.2,.
CSc1cccc(-n2nnc(C(=O)Nc3ccc(Br)cc3)c2C)c1,-1.3,-0.8
O=C(N/N=C/c1cccnc1)N/N=C/c1cccnc1,-0.96,.
CN(C)c1ccc(C2C3=C(CC(C)(C)CC3=O)Nc3cc4c(cc32)OCCO4)cc1 (stereo unspecified),-0.52,.
Cc1ccc(-c2nnc3c4cnn(-c5cccc(C)c5)c4ncn23)cc1,-0.53,-0.52
CCN(CC)CCNC(=O)c1cnc2sc(N3CCCC3)nn2c1=O,.,0.3
# (listing goes on)
SMILES,CDC25B-CDK2 inh,TAR Tat displ
CC(C)(C)c1ccc(OCc2nc3ccccc3[nH]2)cc1,-1.6,0.24
CC(=O)c1ccccc1NC(C#N)c1ccccc1 (stereo unspecified),-1.4,.
O=C(Cn1ccc2cc(S(=O)(=O)N3CCCCC3)ccc21)NC1CCCC1,.,0.3
O=S(=O)(c1ccc2c(c1)CCO2)N1CCN(C2c3ccccc3-c3ccccc32)CC1,-0.38,.
Cc1cc(-c2ccc(S(=O)(=O)N3CCc4ccccc43)cc2)on1,.,0.73
Cc1cn2c(=O)cc(COC(=O)COc3ccc(F)cc3)nc2s1,.,0.03
COc1ccccc1N1CCN([C@H]2CS(=O)(=O)C[C@@H]2S(=O)(=O)c2cccs2)CC1,-1.4,-0.08
Cc1cc(=O)nc2c3ccccc3n(CC(=O)N3CCCCCC3)n12,-0.33,.
COC(=O)Nc1ccc(S(=O)(=O)N2CCC(C(=O)Nc3ccc4c(c3)OCO4)CC2)cc1,-0.88,1.2
FC(F)(F)c1nnc2scc(-c3ccc(Cl)cc3)n12,-2,.
O=C(O)c1cnc(-c2ccccc2)nc1-c1ccncc1,-1.2,-1.1
CC(C)CNC(=O)CN1c2ccccc2NC2=C(C(=O)CCC2)C1c1cccs1 (stereo unspecified),.,0.09
COc1cccc(/C=C/c2nc(C#N)c(NCCCN3CCOCC3)o2)c1,-2.2,-1.8
O=C(Cc1cccs1)N1CCN(C2=NS(=O)(=O)c3ccccc32)CC1,.,1.1
CN1CN=C2SC3(COC(c4ccccc4Cl)OC3)C(=O)N2C1 (stereo unspecified),-1.7,.
Cc1nc2nc(NCc3cc(F)cc(F)c3)[nH]n2c(=O)c1Cl,-1.9,-0.22
c1cncc(-c2nc3c4ccccc4nc(N4CCN(C5CCCCC5)CC4)n3n2)c1,-1.4,1.1
CCOC(=O)N1CCC(NS(=O)(=O)c2csc(C(N)=O)c2)CC1,.,0.61
CCN(CCCNc1nc(-c2ccccc2)no1)c1ccccc1,.,0.17
COc1ccc(-c2noc(CSc3nnc(-c4ccc(Cl)cc4)n3C)n2)c(OC)c1,-1.1,0.34

# Continued; it opens with the 5 that closed the last part.
SMILES,CDC25B-CDK2 inh,TAR Tat displ
Cc1nc2nc(NCc3cc(F)cc(F)c3)[nH]n2c(=O)c1Cl,-1.9,-0.22
c1cncc(-c2nc3c4ccccc4nc(N4CCN(C5CCCCC5)CC4)n3n2)c1,-1.4,1.1
CCOC(=O)N1CCC(NS(=O)(=O)c2csc(C(N)=O)c2)CC1,.,0.61
CCN(CCCNc1nc(-c2ccccc2)no1)c1ccccc1,.,0.17
COc1ccc(-c2noc(CSc3nnc(-c4ccc(Cl)cc4)n3C)n2)c(OC)c1,-1.1,0.34
Cc1ccc(NC(=O)C2=Cc3sc4c(c3CS2)CCC(C)C4)nc1 (stereo unspecified),.,-5.5
O=C(C1CCN(c2nc3ccccc3[nH]2)CC1)N1CCC(N2CCCCC2)CC1,-0.09,1.2
CCN(CC)CCNC(=O)CN1C(=O)c2cccnc2Oc2ccc(Cl)cc21,.,1.1
CC(C)c1ccc(NC2c3ncccc3C(=O)N2Cc2cccs2)cc1 (stereo unspecified),.,1.2
CCOC(=O)c1sc(NC(=O)c2nn(-c3ccc(F)cc3)ccc2=O)c(C(=O)OCC)c1C,-0.9,-0.93
CCOC(=O)c1ccccc1-n1nnc2c(sc3nc(C)c(C)cc32)c1=O,-0.95,-1.5
Cc1noc(C)c1S(=O)(=O)N1CCN(c2ccc(F)cc2)CC1,0.91,0.79
O=C(NCC1CCCO1)c1ccc2c(=O)n(Cc3ccco3)c(SCc3ccc(F)cc3)nc2c1 (stereo unspecified),.,2.6
CCCCCn1cc2c(c1-c1cccc(Br)c1)c(=O)n(C)c(=O)n2C,0.62,0.03
O=C1c2ccccc2C(=O)C1C(C[N+](=O)[O-])c1c(F)cccc1Cl (stereo unspecified),-0.11,.
CCCn1cc(S(=O)(=O)c2ccccc2)c(=O)c2cc(F)c(F)cc21,1,0.85
O=C(CCCN1C(=O)c2ccccc2C1=O)Nc1ccc(Br)cn1,0.1,.
Cc1ccc(S(=O)(=O)c2cnc3cc4c(cc3c2N2CCC(C)CC2)OCCO4)cc1,-1.1,0.25
CC(C)CCOc1ncnc2c1sc1nc3c(cc12)COC(C)(C)C3,-1.8,.
Cc1nnc(NC(=O)C2C3C=CC(O3)C2C(=O)O)s1 (stereo unspecified),1,.
COc1ccc(CCN2N=NC3C(=O)N(c4ccc(F)c(F)c4)C(=O)C32)cc1 (stereo unspecified),0.39,-0.61
Cc1ccc(-n2ncc3c(NCCCO)ncnc32)cc1Cl,.,1.7
O=C(NCCCN1CCN(c2ccc(F)cc2)CC1)c1cc2c(s1)-c1ccsc1CC2,.,1.5
CCCCN1C(SCCC)=NS(=O)(=O)c2ccccc21,.,1.8
O=C(c1ccc(N2CCOc3ccccc32)s1)N1CCCC1,.,-0.3

# 6 records drawn at random from those above:
SMILES,CDC25B-CDK2 inh,TAR Tat displ
Cc1ccc(NC(=O)C2=Cc3sc4c(c3CS2)CCC(C)C4)nc1 (stereo unspecified),.,-5.5
Cc1noc(C)c1S(=O)(=O)N1CCN(c2ccc(F)cc2)CC1,0.91,0.79
O=C1c2ccccc2C(=O)C1C(C[N+](=O)[O-])c1c(F)cccc1Cl (stereo unspecified),-0.11,.
O=C(c1ccc(N2CCOc3ccccc32)s1)N1CCCC1,.,-0.3
CC(C)c1ccc(NC2c3ncccc3C(=O)N2Cc2cccs2)cc1 (stereo unspecified),.,1.2
O=C(CCCN1C(=O)c2ccccc2C1=O)Nc1ccc(Br)cn1,0.1,.

# Continued.
SMILES,CDC25B-CDK2 inh,TAR Tat displ
Cc1ncc(-c2ccc(C)c(S(=O)(=O)Nc3cccnc3)c2)o1,.,1.8
Clc1ccc(-c2csc3ncnc(NCCCN4CCOCC4)c23)cc1,-0.7,.
Cc1ccc(OCc2nn3c(-c4ccccc4Cl)nnc3s2)cc1,-1.5,2.8
CC(C)(C)c1ccc(-c2nc(OS(=O)(=O)c3ccc(Cl)cc3)nn2-c2ccccc2)cc1,-1.8,.
CC1CCCC(NC(=O)C2CC3CCCN3C23C(=O)N(C)c2ccccc23)C1C (stereo unspecified),.,-0.2
Cc1ccc2nc(SC/C=C/c3ccccc3)[nH]c2c1,-2,0.89
O=C(NCCCSCc1ccc(F)cc1)c1ccc(Cl)cc1,-0.43,.
FC(F)(F)c1cccc(C=NCc2ccc(-c3cccs3)s2)c1,-2.3,.
CCOCC(=O)Nc1nnc2n1CCS2,.,1.7
CCC(C(=O)Nc1c(C)nc2c(C)cccn2c1=O)c1ccccc1 (stereo unspecified),.,0.79
CCOc1ccccc1Nc1nc2ccc(C)cc2n2nnnc12,-0.99,2
O=S(=O)(Nc1nccs1)c1ccc(Nc2nnc(-c3ccccc3)c3ccccc23)cc1,-3.4,1.5
CC1(C)CC(=O)c2sc(NC(=O)CSc3nc4ccccc4[nH]3)nc2C1,-2.4,.
COc1ccc(O)c(-c2nc3c(c(=O)[nH]2)Cc2c(CO)cnc(C)c2O3)c1,2,11*

# Part of the list above in order of molecular weight, smallest number first.
SMILES,CDC25B-CDK2 inh,TAR Tat displ
CCOc1ccccc1Nc1nc2ccc(C)cc2n2nnnc12,-0.99,2
CCC(C(=O)Nc1c(C)nc2c(C)cccn2c1=O)c1ccccc1 (stereo unspecified),.,0.79
Clc1ccc(-c2csc3ncnc(NCCCN4CCOCC4)c23)cc1,-0.7,.
CC1CCCC(NC(=O)C2CC3CCCN3C23C(=O)N(C)c2ccccc23)C1C (stereo unspecified),.,-0.2
